Vaccinia stage – blocks a specific stage of Vaccinia orthopoxvirus infection, primary screen, cell-based, single point; AID 1053133, 2014; activity change (mCherry), % (test concentration not listed); Vaccinia-infected cells, mCherry/Venus stage reporter fluorescence; active compounds read low; some inactives read as strong as hits; 0.01% of 89,000 active;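 active = mCherry past -33% and 40 or more points under the early reporter, replicates agreeing; inconclusive = past -33% without that gap or agreement; tested in A549 cells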;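 also: scaled between vehicle wells and reference inhibitor wells; 23 nL library stock went into each well; one replicate is shown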
Vaccinia stage Venus – also measured in Vaccinia stage; calls as there; activity change (Venus), %; measured here: Venus reporter, other viral stage;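 negative = less Venus signal; first of two replicates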
* marks the source's active call; other numbers are inactive results; u = inconclusive; x = not tested or not shown; & = joins results of further samples.

nr | SMILES | Vaccinia stage | Vaccinia stage Venus
1 | C[C@H]1CN([C@@H](C)CO)C(=O)Cc2cc(NC(=O)C3CCCCC3)ccc2O[C@H]1CN(C)Cc1ccncc1 | 8 | 8
2 | O=C(N[C@@H]1CC[C@@H](CCn2cc(-c3ccc(F)cc3)nn2)O[C@@H]1CO)c1cnccn1 | 2 | 3
3 | O=C(NC1CCC1)[C@H]1[C@H](CO)[C@H]2Cn3c(ccc(-c4ccccc4)c3=O)[C@@H]1N2Cc1cocn1 | 11 | 11
4 | COc1cccc(-c2ccc3c(c2)[C@H]2[C@H](CCN2S(=O)(=O)c2cccc(OC)c2)[C@H](CO)N3)c1 | u | x
5 | CCC(=O)N1CC2(CCN(C(=O)c3cccnc3)CC2)c2c([nH]c3cc(OC)ccc23)[C@@H]1CO | 18 | 14
6 | C[C@@H]1CN([C@@H](C)CO)C(=O)Cc2cc(NC(=O)Cc3cn(C)c4ccccc34)ccc2O[C@@H]1CN(C)C(=O)NC1CCCCC1 | 18 | 11
7 | C[C@@H]1CN([C@H](C)CO)C(=O)c2cc(NC(=O)c3ccncc3)ccc2O[C@H]1CN(C)S(=O)(=O)c1ccc(Cl)cc1 | 8 | -5
8 | O=C(NC[C@H]1[C@H](c2ccccc2)[C@H](CO)N1C(=O)C1CC1)NC1CCCC1 | 24 | 19
9 | C[C@H](CO)N1C[C@H](C)[C@@H](CN(C)S(=O)(=O)c2cn(C)cn2)Oc2c(NC(=O)Nc3ccccc3)cccc2C1=O | 14 | 15
10 | C[C@H](CO)N1C[C@H](C)[C@H](CN(C)C(=O)c2ccccc2F)Oc2ncc(C#CC(C)(C)O)cc2C1=O | -5 | -3
11 | CNC(=O)C[C@@H]1CC[C@@H]2[C@H](COC[C@H](O)CN2Cc2ccc(C(F)(F)F)cc2)O1 | 4 | 4
12 | C[C@H](CO)N1C[C@H](C)[C@H](CN(C)C(=O)NC2CCCCC2)OCc2cnnn2CCCC1=O | 13&11 | 15&9
13 | CC(=O)NC[C@H]1[C@H](c2ccc(-c3cccc(F)c3)cc2)[C@@H](CO)N1C(C)=O | 11 | 1
14 | CN1C[C@H](O)COC[C@@H]2O[C@@H](CC(=O)N3CCN(c4ccccc4)CC3)CC[C@H]21 | 13 | 11
15 | Cc1noc(C)c1NC(=O)N(C)C[C@@H]1OCc2cnnn2CCCC(=O)N([C@H](C)CO)C[C@@H]1C | 3 | 2
16 | O=C(NCC[C@@H]1CC[C@H](NC(=O)C2CCC2)[C@@H](CO)O1)c1cnccn1 | -5 | 2
17 | C[C@@H]1CN([C@H](C)CO)C(=O)c2cccc(NC(=O)c3ccc(-c4nccs4)cc3)c2O[C@@H]1CN(C)Cc1ccc(C(=O)Nc2ccccc2N)cc1 | -30 | -17
18 | CN1C(=O)c2cc(NS(C)(=O)=O)ccc2OC[C@@H]2O[C@H](CC(=O)O)CC[C@@H]21 | -10 | 1
19 | COc1ccc2c3c(n(C)c2c1)[C@H](CO)N(Cc1ccc(F)cc1)CC31CCN(CC2CC2)CC1 | u | x
20 | C[C@@H]1CN([C@H](C)CO)C(=O)c2cc(NS(C)(=O)=O)ccc2O[C@H]1CN(C)S(=O)(=O)c1cn(C)cn1 | 9 | 0
21 | CCc1cnc(N2[C@H](C#N)[C@@H](c3ccc(C4=CCCC4)cc3)[C@@H]2CO)s1 | -6 | 3
22 | O=C(C1CCC1)N1CC2(C1)[C@H](c1ccccc1)[C@H](CO)N2Cc1cccnc1 | 11 | 10
23 | C[C@@H]1CN([C@H](C)CO)C(=O)CCCn2nncc2CO[C@H]1CN(C)S(=O)(=O)c1ccccc1 | 17&2 | 19&5
24 | COCC(=O)N1[C@@H](CO)[C@@H](c2ccccc2)C12CN(C(=O)NC1CCCCC1)C2 | 2 | 3
25 | CC(C)NC(=O)Nc1ccc2c(c1)C(=O)N([C@H](C)CO)C[C@H](C)[C@@H](CN(C)S(=O)(=O)c1ccccc1)OCCCC[C@H](C)O2 | 13 | 10
26 | CO[C@@H]1CN(C)C(=O)c2ccc(NS(=O)(=O)c3ccc(F)cc3)cc2OC[C@@H](C)NC[C@@H]1C | 6 | 8
27 | C[C@H]1CN([C@@H](C)CO)C(=O)c2cccc(NC(=O)c3cnccn3)c2O[C@@H]1CN(C)C(=O)Nc1ccc2c(c1)OCO2 | -6 | -4
28 | O=C(C[C@H]1C[C@H]2c3cc(NC(=O)C4CCC4)ccc3O[C@H]2[C@H](CO)O1)NCc1cccnc1 | 32 | 19
29 | C[C@@H]1CCCCO[C@H](CN(C)S(=O)(=O)c2ccc(F)cc2)[C@H](C)CN([C@H](C)CO)C(=O)c2cc(NS(=O)(=O)c3ccccc3)ccc2O1 | -29 | -27
30 | COc1ccc(S(=O)(=O)N(C)C[C@H]2Oc3ccc(NC(=O)Nc4ccc(C(F)(F)F)cc4)cc3CC(=O)N([C@H](C)CO)C[C@@H]2C)cc1 | -27 | -11
31 | COc1ccc(S(=O)(=O)N(C)C[C@H]2Oc3c(NS(=O)(=O)c4cn(C)cn4)cccc3C(=O)N([C@@H](C)CO)C[C@@H]2C)cc1 | 2 | 5
32 | CCC(=O)N[C@@H]1CC[C@@H](CC(=O)NCc2ccccc2F)O[C@@H]1CO | 10 | 8
33 | CCC(=O)N1C[C@@H](C)[C@@H](OC)CN(C)C(=O)c2cc(NC(=O)c3cnccn3)ccc2OC[C@@H]1C | -6 | -3
34 | C[C@H](CO)N1C[C@H](C)[C@@H](CN(C)Cc2ccncc2)Oc2ccc(NC(=O)Cc3ccccc3)cc2C1=O | -2 | 5
35 | COc1ccc(NC(=O)Nc2cccc3c2O[C@@H](CN(C)S(=O)(=O)c2ccc(Cl)cc2)[C@H](C)CN([C@H](C)CO)C3=O)cc1 | 10 | 10
36 | COCC(=O)Nc1ccc2c(c1)[C@H]1C[C@H](CC(=O)N3CCc4ccccc4C3)O[C@@H](CO)[C@H]1O2 | -1 | -5

Fetched by structure from the list above, seven records:
nr | SMILES | Vaccinia stage | Vaccinia stage Venus
28 | O=C(C[C@H]1C[C@H]2c3cc(NC(=O)C4CCC4)ccc3O[C@H]2[C@H](CO)O1)NCc1cccnc1 | 32 | 19
3 | O=C(NC1CCC1)[C@H]1[C@H](CO)[C@H]2Cn3c(ccc(-c4ccccc4)c3=O)[C@@H]1N2Cc1cocn1 | 11 | 11
17 | C[C@@H]1CN([C@H](C)CO)C(=O)c2cccc(NC(=O)c3ccc(-c4nccs4)cc3)c2O[C@@H]1CN(C)Cc1ccc(C(=O)Nc2ccccc2N)cc1 | -30 | -17
30 | COc1ccc(S(=O)(=O)N(C)C[C@H]2Oc3ccc(NC(=O)Nc4ccc(C(F)(F)F)cc4)cc3CC(=O)N([C@H](C)CO)C[C@@H]2C)cc1 | -27 | -11
26 | CO[C@@H]1CN(C)C(=O)c2ccc(NS(=O)(=O)c3ccc(F)cc3)cc2OC[C@@H](C)NC[C@@H]1C | 6 | 8
31 | COc1ccc(S(=O)(=O)N(C)C[C@H]2Oc3c(NS(=O)(=O)c4cn(C)cn4)cccc3C(=O)N([C@@H](C)CO)C[C@@H]2C)cc1 | 2 | 5
22 | O=C(C1CCC1)N1CC2(C1)[C@H](c1ccccc1)[C@H](CO)N2Cc1cccnc1 | 11 | 10

(continued)
nr | SMILES | Vaccinia stage | Vaccinia stage Venus
37 | Cc1ccc(-c2ccc3c(c2)O[C@@H](CN(C)Cc2ccccc2)[C@H](C)CN([C@@H](C)CO)S3(=O)=O)cc1 | -34 | -30
38 | COc1ccccc1CNC(=O)C[C@@H]1C[C@H]2c3cc(NC(=O)CN(C)C)ccc3O[C@H]2[C@@H](CO)O1 | -6 | -7
39 | O=C(NCCc1ccncc1)[C@@H]1[C@@H](CO)[C@@H]2Cn3c(ccc(-c4ccccc4)c3=O)[C@H]1N2 | 6 | 4
40 | C[C@H]1CN([C@@H](C)CO)C(=O)c2cc(NC(=O)Cc3ccccc3)ccc2O[C@@H]1CN(C)Cc1ccc(C(F)(F)F)cc1 | -29 | -34
41 | CC(C)C#Cc1ccc2c(c1)O[C@H](CN(C)C(=O)c1cnccn1)[C@@H](C)CN([C@@H](C)CO)S2(=O)=O | 11 | 10
42 | Cc1noc(C)c1NC(=O)Nc1ccc2c(c1)C(=O)N([C@@H](C)CO)C[C@H](C)[C@H](CN(C)C(=O)NC1CCCCC1)O2 | 17 | 8
43 | C[C@@H]1CN([C@@H](C)CO)C(=O)c2cc(NC(=O)Nc3ccc(C(F)(F)F)cc3)ccc2O[C@@H](C)CCCCO[C@@H]1CN(C)C | u | x
44 | C[C@@H]1CN([C@H](C)CO)C(=O)Cc2cc(NC(=O)c3ccncc3)ccc2O[C@H]1CN(C)S(=O)(=O)c1ccc(F)cc1 | 0 | 3
45 | CC(=O)N1[C@H](CO)[C@@H](c2ccccc2)[C@H]1CN(CC1CCC1)C(=O)CN(C)C | 15 | 21
46 | CS(=O)(=O)N1C[C@H](O)COC[C@H]2O[C@@H](CC(=O)NC3Cc4ccccc4C3)CC[C@@H]21 | 8 | -8
47 | COc1ccc(NC(=O)N2C[C@@H]3[C@H](c4ccccc42)[C@@H](CO)N3Cc2ccccn2)cc1 | 6 | -1
48 | COC(=O)C[C@H]1CC[C@H]2[C@@H](COc3ccc(NC(=O)c4cnccn4)cc3C(=O)N2C)O1 | 17 | 12
49 | CCC(=O)N1CC[C@H]2[C@@H]1c1cc(-c3ccccc3F)ccc1N(C)[C@H]2CO | -4 | -5
50 | C/C=C/c1cnc2c(c1)C(=O)N([C@@H](C)CO)C[C@@H](C)[C@@H](CN(C)C(=O)NC1CCCC1)O2 | 1 | 1
51 | Cc1ccc(S(=O)(=O)Nc2ccc3c(c2)C(=O)N([C@@H](C)CO)C[C@H](C)[C@@H](CN(C)C)OCCCC[C@@H](C)O3)cc1 | -4 | 8
52 | CC(C)NC(=O)N(C)C[C@@H]1Oc2ncc(-c3cccc(C#N)c3)cc2C(=O)N([C@@H](C)CO)C[C@H]1C | 24 | 17
53 | COc1cccc(C#Cc2ccc([C@@H]3[C@H](C#N)N(C(=O)C4CCCC4)[C@H]3CO)cc2)c1 | u | x
54 | C[C@H]1CN([C@@H](C)CO)C(=O)c2cccc(NS(=O)(=O)c3cccs3)c2O[C@@H]1CN(C)Cc1ccc(-c2ccccc2)cc1 | -18 | -19
55 | COc1ccccc1CNC(=O)C[C@H]1C[C@@H]2c3cc(NC(=O)NC4CCCC4)ccc3O[C@@H]2[C@H](CO)O1 | 19 | 19
56 | O=C(NCC[C@@H]1CC[C@H](NC(=O)c2cccnc2)[C@@H](CO)O1)Nc1ccc(Cl)cc1 | 0 | 4
57 | CC(=O)N1[C@@H]2CN(C(=O)c3ccccc3)c3ccccc3[C@@H]2[C@@H]1CO | 7 | 6
58 | CCC(=O)Nc1ccc2c(c1)C(=O)N(C)C[C@H](OC)[C@H](C)CN(C(C)=O)[C@@H](C)CO2 | 6 | -1
59 | C[C@@H]1CN([C@@H](C)CO)C(=O)Cc2cc(NC(=O)Cn3cnnn3)ccc2O[C@@H]1CN(C)C(=O)NC1CCCCC1 | 41 | 32
60 | Cc1cc(C(=O)Nc2cccc3c2O[C@H](CN(C)Cc2ccc(Cl)c(Cl)c2)[C@@H](C)CN([C@H](C)CO)C3=O)n(C)n1 | -23 | -21
61 | CCCNC(=O)N1[C@H](CO)[C@H](c2ccc(C3=CCCC3)cc2)[C@@H]1C#N | 18 | 14
62 | CC=Cc1ccc2n(c1=O)C[C@H]1[C@H](CO)[C@@H](C(=O)NCC)[C@@H]2N1CC1CCOCC1 (mixture of isomers) | 9 | 9
63 | C[C@@H]1CN([C@@H](C)CO)C(=O)c2cc(NS(=O)(=O)c3cn(C)cn3)ccc2O[C@@H]1CN(C)C(=O)Nc1ccccc1 | 9 | 6
64 | Cc1noc(C)c1NC(=O)N(C)C[C@H]1OCCCC[C@@H](C)Oc2ccc(NS(=O)(=O)c3ccc(Cl)cc3)cc2C(=O)N([C@H](C)CO)C[C@@H]1C | 23 | 11
65 | CO[C@@H]1CN(C)C(=O)c2cc(NS(=O)(=O)c3cccc(F)c3)ccc2OC[C@H](C)N(C(=O)Cc2cccnc2)C[C@@H]1C | 6 | 8
66 | C[C@@H]1CN([C@@H](C)CO)C(=O)CCCn2cc(nn2)CO[C@H]1CN(C)S(=O)(=O)c1ccc(Cl)cc1 | 10&9 | 8&9
67 | C[C@H](NC(=O)C[C@H]1C=C[C@H](NC(=O)Cc2ccccn2)[C@@H](CO)O1)c1ccccc1 | 6 | 4
68 | COCC(=O)N(C)C[C@H]1Oc2ncc(C#Cc3ccccc3)cc2C(=O)N([C@H](C)CO)C[C@H]1C | 7 | 3
69 | COc1ccccc1-c1cnc2c(c1)C(=O)N([C@H](C)CO)C[C@@H](C)[C@H](CN(C)C(C)=O)O2 | 21 | 10
70 | O=C(Cc1ccncc1)Nc1ccc2c(c1)[C@H]1C[C@@H](CC(=O)NC3CCCC3)O[C@H](CO)[C@H]1O2 | 3 | 5
71 | C[C@@H]1CN([C@@H](C)CO)C(=O)Cc2cc(NC(=O)CCC(F)(F)F)ccc2O[C@H]1CN(C)C(=O)Nc1ccc(F)cc1 | -5 | -5
72 | N#Cc1cccc(-c2ccc([C@H]3[C@@H](CO)N4CCCCN(C(=O)Cc5cccnc5)C[C@H]34)cc2)c1 | 2 | 7
73 | Cc1ccc(S(=O)(=O)N(C)C[C@@H]2Oc3ccc(NC(=O)NC(C)C)cc3CC(=O)N([C@@H](C)CO)C[C@@H]2C)cc1 | -3 | 3
74 | CC(C)C#Cc1ccc([C@@H]2[C@H]3CN(C(=O)c4ccc5c(c4)OCO5)CCCCN3[C@H]2CO)cc1 | u | x
75 | Cc1noc(C)c1NC(=O)Nc1ccc2c(c1)C(=O)N([C@H](C)CO)C[C@H](C)[C@H](CN(C)Cc1ccc3c(c1)OCO3)O2 | -3 | -12
76 | CCCC#Cc1ccc2c(c1)O[C@H](CN(C)C(=O)Nc1ccc(OC)cc1)[C@@H](C)CN([C@@H](C)CO)S2(=O)=O | u | x

High-throughput results from PubChem BioAssay.

These rows are one share of the data (hit frequency here may not be typical).
